D2 agonist = Beta-Arrestin HTS for Positive Allosteric Modulators of the Human D2 Dopamine Receptor: Agonists. D(2) dopamine receptor (Homo sapiens), P14416. DiscoveRx PathHunter D2 beta-arrestin, luminescence, 90 min; 100% = 57 uM dopamine signal. activation, % (concentration not given with the values). actives 0.084% (n = 360,000). AID 624465, 2012; in the data active = activation above about 40%; inconclusive = about 15% to 40%; inactive = below about 15%; also: compound concentration not given in the record; the text of the record calls up to 30% inactive
Target sequence (P14416 whole entry, looked up): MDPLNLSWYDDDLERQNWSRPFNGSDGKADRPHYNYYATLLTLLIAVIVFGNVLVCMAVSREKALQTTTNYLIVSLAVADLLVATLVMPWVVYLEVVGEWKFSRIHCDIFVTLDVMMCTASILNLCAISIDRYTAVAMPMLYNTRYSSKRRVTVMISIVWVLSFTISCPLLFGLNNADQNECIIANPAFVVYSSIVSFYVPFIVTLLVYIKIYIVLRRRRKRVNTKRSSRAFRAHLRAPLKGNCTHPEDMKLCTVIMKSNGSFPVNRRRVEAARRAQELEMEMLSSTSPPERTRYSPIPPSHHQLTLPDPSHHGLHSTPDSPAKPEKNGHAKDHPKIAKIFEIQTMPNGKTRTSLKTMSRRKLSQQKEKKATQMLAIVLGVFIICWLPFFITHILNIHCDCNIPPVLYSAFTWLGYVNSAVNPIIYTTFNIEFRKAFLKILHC
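DiscoveRx PathHunter D2 beta-arrestin cells (2,100/well) attached overnight, then compound-stimulated 90 min at 37 C in HBSS/10 mM HEPES/0.1% Tween-20 buffer; beta-galactosidase complementation read by luminescence after 1 h at ambient temperature. Dopamine 57 uM final (EC100) as control.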
PINK1 modulator = A Quantitative High throughput Screen to Identify Chemical Modulators of PINK1 Expression. PINK1 immunofluorescence, high-content cytometry, 24 h. Potency, µM (highest dose often 76.6 µM), inactives show top-dose activation (PINK1 increase), most hits filed as activators. actives 0.2% (n = 410,000); active = well fitted activation curve with a large enough effect; inconclusive = small, poorly fitted or top-dose-only effect; inactive = flat fitted curve, though single readings scatter; cell line not stated here;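 also: potency is read from the fitted curve at half-maximal effect; % of control where 0% means no effect; nearly all actives have a fitted effect of over 65% in size; a mitochondrial uncoupler was the plate control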
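A stable cell line was treated with compounds at 5 concentrations for 24 hours, with CCCP as control. PINK1 levels and mitochondrial localization were measured by immunofluorescence with mitochondrial, cell and nuclear markers after fixation, read by laser-scanning cytometry.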
Menin MLL FP FL = qHTS Assay for Inhibitors Targeting the Menin-MLL Interaction in MLL Related Leukemias: Competition With Fluorescein Labeled MLL-derived Peptide | Fluorescence polarization, fluorescein-MLL peptide displacement from menin | 290,000 tested, under 10 active | AID 1766, 2009 | FP activity change, % at 61.4 µM; inconclusive = falling polarisation curve, or a change in total fluorescence; inactive = total fluorescence flat and polarisation flat or rising; no compound was filed as active; the % refers to the polarisation; negative = inhibition;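 also: % of control where 0% means no effect; inhibitors lower the polarisation; unlabelled MLL peptide was the positive control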
Sfp inh = qHTS Assay for Inhibitors of Bacillus subtilis Sfp phosphopantetheinyl transferase (PPTase); 4'-phosphopantetheinyl transferase ffp (Bacillus subtilis), Q9F4F7; Biochemical Sfp PPTase activity, qHTS; Potency, µM, for inactives: max response, negative = inhibition, actives largely listed as inhibitors; actives 3.5% (n = 310,000); AID 1490, 2009; active = well fitted inhibition curve with a large enough effect; inconclusive = small, poorly fitted or top-dose-only effect, or another doubt; inactive = no such curve, though single readings can be large or run the other way;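 also: the enzyme is Sfp with the accession as filed and its product quenches rhodamine fluorescence; potency is read from the fitted curve at half-maximal effect; 0% = enzyme reaction without inhibitor and -100% = no enzyme wells; top concentration of the series not given in the record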
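Step 1, compound plus 15 nM Sfp-PPTase, 15 min, room temperature. Step 2, add rhodamine-CoA (5 uM) and BHQ-2-YbbR (12.5 uM). Step 3, read 525/598 nm fluorescence at 0 and 30 min.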
ClpP mod = qHTS Assay for Activators of ClpP. purified B. subtilis ClpP, FRET peptide cleavage, 20 min. Potency, µM (series often up to 57.5 µM), without a hit: at the highest dose activity change, negative = active. actives 1.9% (n = 340,000). AID 651965, 2013; active = well fitted falling curve with a large enough effect; inconclusive = small, poorly fitted or top-dose-only effect; inactive = no such curve, though single readings can be large or run the other way; also: potency is read from the fitted curve at half-maximal effect; the source files actives as falling curves though it sought activators and does not explain the sign; nearly all actives have a fitted effect of over 65% in size; many hits overshoot -100%
Target sequence (P80244 whole entry, looked up): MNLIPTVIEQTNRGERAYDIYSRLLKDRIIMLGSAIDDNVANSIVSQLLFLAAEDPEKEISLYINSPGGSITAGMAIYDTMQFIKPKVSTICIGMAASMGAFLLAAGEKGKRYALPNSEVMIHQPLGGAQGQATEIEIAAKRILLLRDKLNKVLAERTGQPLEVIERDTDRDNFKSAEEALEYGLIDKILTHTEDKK
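FRET quenching reversal measured ClpP activation: 10 microg/mL B. subtilis ClpP at pH 8 with the FRET-FV decapeptide, read at 430 nm after 320 nm excitation. The 20-min minus 0-min signal was scaled between DMSO/no-enzyme wells and ADEP (5.8 microM final).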
gsp ag = qHTS for Agonist of gsp, the Etiologic Mutation Responsible for Fibrous Dysplasia/McCune-Albright Syndrome: qHTS. gsp mutant cells, cAMP HTRF, 30 min; control for the full effect not named in the record. Potency, µM (highest dose often 76.9 µM), without a hit: at the top dose activation (cAMP increase), hits mostly activators. actives 0.13% (n = 340,000); active = well fitted activation curve with a large enough effect; inconclusive = small, poorly fitted or top-dose-only effect, or another doubt; inactive = no such curve, though single readings can be large or run the other way; cell line not stated here;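 also: phosphodiesterase inhibitor Ro 20-1724 added with compounds to block cAMP breakdown; potency is read from the fitted curve at half-maximal effect; nearly all actives have a fitted effect of over 60% in size; about a fifth of the inactives were tested at one dose only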
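Cells stably selected in G418 were plated at 2000/well, grown 16-24 hr, then given compounds in DMSO with the PDE inhibitor […] (300 uM solution added) for 30 min at 37C; cAMP was read by HTRF.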
gsp antag = qHTS for Antagonists of gsp, the Etiologic Mutation Responsible for Fibrous Dysplasia/McCune-Albright Syndrome: qHTS; gsp-mutant cells, cAMP HTRF, 30 min; control for the full effect not named in the record; Potency, µM (series often up to 76.9 µM), inactives show at the highest dose activity change, negative = inhibition, usual class: inhibitors; actives 0.4% (n = 340,000); AID 624288, 2012; active = falling curve of any shape with a large fitted effect; inconclusive = falling curve, mostly with a smaller effect; inactive = flat or rising curve; cell line not stated here;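 also: intracellular cAMP measured with PDE inhibitor Ro 20-1724 present during compound exposure; potency is read from the fitted curve at half-maximal effect; % is scaled to controls: 0 for no effect and ±100 for the full control effect; nearly all actives have a fitted effect of over 65% in size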
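G418-selected cells were plated in DMEM/10% FBS for 16-24 h at 37C, then treated with compounds plus the PDE inhibitor […] (300 uM solution added) for 30 min at 37C. Intracellular cAMP was measured by HTRF after 30 min lysis at room temperature.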
Starred values were filed as active, the others as inactive; ? = inconclusive; . = not tested or not shown; & = joins results of further samples; [ ] = dose if it differs, or a comment.

SMILES	D2 agonist	PINK1 modulator	Menin MLL FP FL	Sfp inh	ClpP mod	gsp ag	gsp antag
CN(CC(=O)Nc1ccc(F)cc1)C(=O)COC(=O)COc1ccc(C#N)cc1	-2.1	1.8%	.	.	2.8%	28%	-18%
CCCCCCc1c(C)c2ccc(OCC(=O)N[C@@H](Cc3ccccc3)C(=O)O)cc2oc1=O	-0.2	3.4%	-1.2	2%	4.7%	.	-5%
Cc1sc2nc(SCC(=O)NCc3ccco3)[nH]c(=O)c2c1C	-0.8	4.5%	9.2	-8%	-5.6%	15%	12%
N#CC1(C#N)C(c2ccccc2)OC23CCCCC2C1(C#N)C(=N)O3 (configuration not stated)	5.4	1.3%	?	5%	14µM*	2%[15.4 µM]	6%
O=C(NCc1cc(C(F)(F)F)cc(C(F)(F)F)c1)C1CC(c2ccc(C(F)(F)F)cc2)=NO1 (configuration not stated)	-1.7	2.5%	.	.	1.4%	.	1%
Cc1ccc(C(=O)NCc2cccs2)cc1S(=O)(=O)N1CCCCC1	-1.8	.	-3.6	?	0.2%	-39%[inhibitor]	-3%
Nc1cc(C(F)(F)F)ccc1-n1cccc1	-0.1	1.5%	2.5	3%	-0.2%	?	-7%
CCOC(=O)c1sc(NC(=O)CSc2nc(O)c(Cc3ccccc3)c(=O)[nH]2)nc1C	-3.7	3.1%	2.5	11%	-2.0%	-5%	-3%
Cc1nnc(SCC(=O)OC2CC(C)CCC2C(C)C)[nH]c1=O (configuration not stated)	-3.5	-2.2%	?	7%	-3.0%	-16%	-16%
Fc1cccc(Cc2c(-c3ccccc3)nc3ccc(Cl)cn23)c1	4.8	?	.	.	?	.	.
CCc1cccc(CC)c1NC(=O)COn1nnc2ccc(C(F)(F)F)cc21	-0.2	16%	3.2	4%	?	3%	-6%
Cc1cccc(N(CC(=O)NC2CCCCC2)C(=O)CCCC(=O)Nc2ccccn2)c1C	0.3	0.7%	0.6	11%	.	-9%[15.4 µM]	-11%
O=S(=O)(NCc1cccnc1)c1ccc2ccccc2c1	-3.6	-1.1%	-3.8	0%	.	-28%	3%
Cc1ccc2c(c1)C(=O)C(=O)N2CCCOc1ccccc1C	-12	-0.3%	-6.9	0%	0.9%	-4%	24%
CN(C)C(C(=O)Nc1cc(Cl)cc(Cl)c1)c1ccccc1 (configuration not stated)	-1.7	11%	-0.9	15%	.	-1%[15.4 µM]	.
CCS(=O)(=O)N1Cc2ccccc2CC1C(=O)OCC(=O)N(C(C)C)C(C)C (configuration not stated)	-0.1	-0.1%	-4.2	9%	.	-11%	-1%
COc1ccc(OC)c(C(=O)NC(CC(N)=O)c2ccc(NCCN3CCCCC3)c([N+](=O)[O-])c2)c1 (configuration not stated)	-1.3	0.7%	-7.5	15%	-19%	.	4%
O=C(NCCO)c1ccccc1O	-1.8	-0.1%	-0.2	5%	32µM*	-30%	-11%
Cc1nc(N2CCCCC2)c2c(-c3cccs3)csc2n1	-3.4	6.2%	?	56µM*	0.2%	-2%[15.4 µM]	-14%
CCn1c(=O)c([N+](=O)[O-])c(N2CCSCC2)c2ccccc21	-1.2	-0.9%	3.2	?	1.4%	0%[15.4 µM]	-40%
Cc1ccc(-c2csc3nnc(SCC(=O)Nc4cccc(C)n4)n23)cc1	1.3	0.2%	-0.2	-7%	-13%	-34%[inhibitor]	-5%
CCOC(=O)N1CCN(C(=O)NC2CCCCC2)CC1	2.2	0.5%	3.5	-3%	-0.3%	21%	20%
COc1ccc(-c2nn3c(-c4cccc(C)c4)nnc3s2)cc1OC	-2.8	27%[38.3 µM]	.	.	-5.4%	18%	5%
CCN1CCN(C(=O)C(N)Cc2ccccc2)CC1 (configuration not stated)	-5.3	4.1%	-1.0	12%	0.1%	?	1%
CN(C)C(=O)c1c([N+](=O)[O-])ncn1C	0.9	0.6%	-2.7	18%	-7.1%	12%	12%
O=C(Cn1cnc2c(cnn2-c2ccc(F)cc2)c1=O)N1CCCc2ccccc21	-3.2	2.3%	-1.5	13%	-2.4%	4%	-27%
COc1ccc(CN(CC(=O)NC2CCCC2)C(=O)c2ccc(-c3ccccc3)[nH]2)cc1	-4.2	0.2%	1.9	23%	.	-1%[15.4 µM]	-15%
CCOc1c(N2CCOCC2)c(=O)c1=O	6.1	2.1%	3.4	0%	.	0%[15.4 µM]	11%
O=C(NC(c1ccc(Cl)cc1)c1ccsc1)C1CCN(Cc2cccc(C(F)(F)F)c2)CC1 (configuration not stated)	-2.3	3.8%	.	.	-0.6%	.	.
Cc1c(C(=O)NCc2ccc(F)cc2)sc(=O)n1Cc1ccccc1F	8.1	0.4%	.	.	-0.6%	.	.
CCCCC(=O)Nc1ccc2c(c1)nc1n2CCSC1	-3.8	0.8%	3.5	-4%	7.4%	1%	10%
Cc1ccc(CNc2nc(Cl)c(C#N)s2)cc1	-1.5	2.7%	2.2	13%	.	0%	5%
Cc1cccc(-n2nc3c([n+]2[O-])CCc2nonc2-3)c1C	0.4	-2.1%	2.4	8%	-1.9%	0%	10%
CC(/C=N\N1CCN(c2ccc(Cl)cc2)CC1)=C\c1ccccc1	1.7	0.2%	-0.6	5%	-2.3%	?	7%
CCOC(=O)N1CCN(C(=O)CCn2c(=S)[nH]c3ccccc3c2=O)CC1	1.6	-1.4%	-0.1	3%	0.1%	1%	-18%
O=C(COC(=O)c1ccc([N+](=O)[O-])o1)NC1CCCc2ccccc21 (configuration not stated)	10	-2.1%	.	.	-0.6%	17%	-1%
CCN(C[C@H]1N[C@@](CC)(C(=O)OC)[C@H]2C(=O)N(Cc3ccccc3)C(=O)[C@@H]12)C(=O)NC(C)C	-0.2	-0.2%	.	.	-0.8%	.	2%
NN1C(=O)/C(=C\c2ccco2)SC1=S	-1.4	-0.5%	?	3.2µM*	.	-12%[15.4 µM]	-10%
COc1ccccc1NC(=O)Cc1noc(CSc2nnc(C(F)(F)F)n2C)n1	3.8	-1.4%	4.2	16%	1.5%	?	-11%
CC1=CC2=NC(=O)/C(=C\c3cc(C)n(-c4ccc(F)cc4)c3C)C(=N)N2O1	-1.8	13%	.	17%	110%	?	10%
CC1(C)CC(=O)C=C(NNC(=O)c2ccccc2O)C1	-1.8	12%[38.3 µM]	?	2%	-11%	-41%	-16%
O=S(=O)(NCCc1ccccc1)c1cccc2nsnc12	-0.1	.	2.7	18%	-0.9%	-27%	-5%
COc1ccc(Br)cc1S(=O)(=O)NNC(=O)c1c(C)nc2ccccn12	4.4	2.6%	-0.5	2%	.	-2%[15.4 µM]	-13%
COc1ccc(NC(=O)CN2CCN(CC(=O)Nc3ccccc3Cl)CC2)cc1	-1.2	-0.6%	2.6	2%	13%	7%	-2%
CCOC(=O)C1CCN(S(=O)(=O)c2ccccc2[N+](=O)[O-])CC1	-11	1.0%	.	.	-0.5%	-4%	-3%
O=S(=O)(c1cccs1)N1CCc2ccccc21	-1.0	1.7%	3.4	6%	0.4%	-26%	4%
CCOC(=O)C1CCN(C(=O)COC(=O)c2oc3ccc(OC)cc3c2C)CC1	-2.3	0.4%	.	.	4.1%	19%	-9%
O=C(CN1CCC(C(=O)c2ccc(F)cc2)CC1)Nc1ccccc1	1.5	-0.3%[38.3 µM]	0.2	15%	0.5%	-58%[inhibitor]	-20%
O=c1[nH]c(CSc2nc(-c3ccc(F)cc3)cs2)nc2ccccc12	4.2	?	5.9	14%	0.7%	-36%[inhibitor]	5%
Cc1ccc(-c2ccc(CN3C(CC(C)C)C(=O)N(Cc4cn(CC5CCCCC5)nn4)CCS3(=O)=O)cc2)cc1 (configuration not stated)	-3.8	-0.9%	.	.	-1.4%	-89%[inhibitor]	.
COc1cc2c(cc1NC(=O)c1cccnc1)CCCC2	1.3	-0.9%	2.7	-2%	-3.7%	6%	3%
CC(C)(C)c1nc(SCC(=O)N2CCCC2)c2ccccc2n1	2.4	6.7%	0.4	-16%	.	2%[15.4 µM]	.
COc1ccc(OCC(=O)Nc2nnc(S(=O)(=O)N3CCCCCC3)s2)cc1	-0.9	0.6%&-0.6%	0.1	7%	-0.3%&0.4%	-38%[inhibitor]	-5%
CCN(CC(=O)Nc1ccc(Br)cc1)C(=O)c1nc2nc(C)cc(C)n2n1	1.0	0.9%	.	.	-0.5%	-1%	7%
CCOC(=O)C1Sc2[nH]c(=O)sc2C(c2ccc(Cl)cc2)C1C(=O)OCC (configuration not stated)	4.2	-0.5%	7.3	22µM*	2.1%	-29%	-42%
CS(=O)(=O)c1ccc(C(=O)OCC(=O)N(CCc2ccccc2)Cc2ccccc2)cc1	-4.0	0.2%	.	.	.	1%[15.4 µM]	-6%
Cc1cccnc1NC(=O)c1csnn1	3.3	0.8%	-7.1	24%	-1.3%	-7%	-13%
Cc1ccc(NC(=O)CSC(C)C(=O)NCCc2ccccn2)cc1 (configuration not stated)	-0.2	-0.3%	0.1	25%	-0.2%	9%	6%
O=S(=O)(CCN1CCCC1)NCCNS(=O)(=O)c1ccc(F)cc1Br	-7.3	1.1%	.	.	-2.7%	.	12%
COc1ccc(CNC(=O)C2CCCN(C(=O)Nc3ccccc3OC)C2)cc1 (configuration not stated)	5.3	1.7%	-0.3	22%	.	?	-17%
COc1ccc(S(=O)(=O)NNc2nc(C)cc(C)n2)cc1[N+](=O)[O-]	-13	0.6%	.	50µM*	-1.5%	-4%	9%
COCCNC(=O)/C(C#N)=C/c1c(N2CCN(C)CC2)nc2ccccn2c1=O	0.3	1.6%	-1.9	-2%	3.7%	?	2%

Assay outcomes (PubChem)
